# AID504770 – E. coli YBA685 growth inhibition, screen for V. cholerae RctB inhibitors; z-score (test concentration not listed); E. coli YBA685 rctB-dependent plasmid, OD600 growth, 3 h; stronger effect = lower value; 0.27% of 130,000 active;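 active = z-score under -2 on both plates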;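 note: wells of about 30 µL received 100 nL stock; score is relative to mean and SD of the test wells; the first replicate is given; strong numbers were not always called active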
# CapD inh – CapD enzyme inhibition; 0.23% of 140,000 active; AID 492967; z-score (test concentration not listed); purified CapD enzyme, fluorescence intensity read-out; stronger effect = lower value; some hits fall short of the stated cut;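 active = z-score under -4 in either of two replicates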;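 note: stock transfer was 100 nL into about 40 µL; score is relative to mean and spread of the plate; one replicate is shown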
# An asterisk follows results filed as active; / = not tested or not shown; & = joins results of further samples. Outcome played no part in choosing rows. Share with any hit: about 0.41%.
SMILES,AID504770,CapD inh
CCOc1ccc(-c2nc(CSCC(=O)NC3CC3)c(C)o2)cc1,0.25,0.68
O=C1CN(C(=O)c2ccc(Cl)c(S(=O)(=O)N3CCCCCC3)c2)c2ccccc2N1,1.1,/
C=CCNC(=O)c1c(C)cc(C)cc1C,-0.65,-1.1
CCOC(=O)N1CCN(C(=O)c2ccc(N3CCCCC3)c(NC(=O)Nc3ccc(Cl)c(Cl)c3)c2)CC1,-1.3,-1.1
O=C(COC(=O)c1ccccc1)Nc1cccc2nsnc12,1.9,/
COC(=O)c1cccc(S(=O)(=O)N2CCC(NC(=O)Nc3cccc(F)c3)CC2)c1,-0.6,/
CCN(CC)S(=O)(=O)c1ccc(NC(=O)/C=C/c2ccc(F)cc2)cc1,0.65,-0.62
CCCC(=O)Nc1cc(-c2nnc(OC)c3ccccc23)ccc1N1CCOCC1,-0.05,-0.29
CCCS(=O)(=O)c1c(S(=O)(=O)CCC)c2c3ccccc3ccn2c1C(=O)N/N=C/C(C)C,/,-0.24
Cc1ccc(S(=O)(=O)NCC(=O)NC2CCCC2)cc1,2.3,-0.71
O=C(NNC1=NCCCCC1)c1ccc(Br)cc1,-0.4,-0.14
Cc1nc2ccccc2c(=O)n1-c1cccc(NC(=O)c2ccc(Br)o2)c1,0.45,/
O=C(Cn1cc(S(=O)(=O)N2CCCC2)c(S(=O)(=O)N2CCCC2)c1)N1CCCCCC1,1.1,-2.1
CC(=O)N1CCC(N(C(=O)Nc2ccccc2)C2CCCC2)CC1,-1.1,9.1
O=C(Oc1ccc(-c2nnco2)cc1)C1c2ccccc2Oc2ccccc21,-1.1,/
COc1ccc(OC)c(C2C(C(=O)Nc3ccc(Br)cn3)=C(C)NC3=C2C(=O)CC(C)(C)C3)c1 (centres undefined),/,6.9
O=C(c1cc2ccc(Br)cc2oc1=O)N1CCSC1c1cccc([N+](=O)[O-])c1 (centres undefined),/,0.43
O=C(N/N=C/c1ccc(Sc2nnc(-c3ccccc3)n2-c2ccccc2)o1)c1ccncc1,/,-0.29
CC/C(=N/NC(=O)c1ccccc1C)c1ccc(O)cc1,-0.6,0.045
COc1cc(Br)c(/C=C2\SC(NC(C)=O)=NC2=O)cc1OC,/,0.005
CCOC(=O)CSc1nc2sc3c(c2c(=O)n1-c1ccccc1)CCC3,/,3.6
COc1ccc(O)c(C2SCc3cc(C)c(C)cc3CS2)c1,/,-0.82
Cc1sc2c(c1C)c(=O)n(-c1ccccc1)c1nnc(SCC(N)=O)n21,/,-0.37
CC(C)(Oc1ccc(CCNC(=O)c2ccc(Cl)cc2)cc1)C(=O)O,-0.35,-0.19&-0.58
COC(=O)C(C)N(C#N)c1nc(C)nc(C)n1 (centres undefined),0.6,0.27

# In the list so far, 3 have an aryl thioether with sulfur outside any ring:
SMILES,AID504770,CapD inh
O=C(N/N=C/c1ccc(Sc2nnc(-c3ccccc3)n2-c2ccccc2)o1)c1ccncc1,/,-0.29
CCOC(=O)CSc1nc2sc3c(c2c(=O)n1-c1ccccc1)CCC3,/,3.6
Cc1sc2c(c1C)c(=O)n(-c1ccccc1)c1nnc(SCC(N)=O)n21,/,-0.37

# The main list resumes with the 6 entries that preceded the break.
SMILES,AID504770,CapD inh
COc1cc(Br)c(/C=C2\SC(NC(C)=O)=NC2=O)cc1OC,/,0.005
CCOC(=O)CSc1nc2sc3c(c2c(=O)n1-c1ccccc1)CCC3,/,3.6
COc1ccc(O)c(C2SCc3cc(C)c(C)cc3CS2)c1,/,-0.82
Cc1sc2c(c1C)c(=O)n(-c1ccccc1)c1nnc(SCC(N)=O)n21,/,-0.37
CC(C)(Oc1ccc(CCNC(=O)c2ccc(Cl)cc2)cc1)C(=O)O,-0.35,-0.19&-0.58
COC(=O)C(C)N(C#N)c1nc(C)nc(C)n1 (centres undefined),0.6,0.27
OC(c1ccccc1)c1nnc(-c2ccccc2)o1 (centres undefined),2.1,-0.13
O=c1[nH]nc2n1CCCCC2,-0.6,/
COc1ccc(CCC(=O)CCc2ccc(OC)cc2)cc1,1.2,1.1
COc1ccc(C2=NN(C(=O)CCCC(=O)O)C(c3ccc(Cl)cc3)C2)cc1 (centres undefined),/,5.3
C=CCN(CC=C)C(=O)CSc1nc(N)cc(N)n1,-0.55,/
CCCN1CCC(N(C(=O)Nc2ccccc2C(=O)N2CCc3ccccc3C2)C2CC2)CC1,/,-0.025
O=C(Nc1ccc(Cl)cc1C(O)c1ccccc1)c1cnn2c1NC(c1cccs1)CC2C(F)(F)F (centres undefined),/,-0.49
O=C1/C(=C/c2cccs2)CCCc2ccccc21,1.4,-1.2
COc1cc(C(=O)N2C(C)CCCC2C)cc(OC)c1OC (centres undefined),-0.35,-0.26
COc1cc(C(=O)N(Cc2ccco2)Cc2ccccc2F)cc(OC)c1OC,-1.4,0.11
CC(=O)N=c1scc(-c2ccccc2)n1-c1ccc(C)cc1,-0.55,0.27
O=C(c1cccc(C(F)(F)F)c1)N1CCc2nc3ncccc3cc2C1,/,-0.38
COc1cc(CNc2nn[nH]n2)cc(Br)c1OCc1ccc(Cl)cc1,2,/
O=C1Nc2ccc(Br)cc2C1=Cc1nc2ccccc2c(=O)n1Cc1ccccc1,/,-0.28
CCc1cccc(CC)c1NC(=O)c1c(Cl)nc2sccn12,0.9,/
NC(=O)c1ccccc1NC(=O)C1SC(=Nc2cccc(Cl)c2)C(C(=O)NCc2ccco2)=C1N (centres undefined),0.05,/
Cc1noc(C)c1C(=O)OCC(=O)NCC12CC3CC(CC(C3)C1)C2,0.15,/
COc1ccc(-c2ccc(C#N)c(=O)n2Cc2cccc(C(F)(F)F)c2)cc1,/,14
Oc1c(N=Nc2cc(Cl)ccc2Cl)c2ccccc2n1-c1ccccc1,/,0.11
CCc1ccc(S(=O)(=O)NC2CCCCNC2=O)cc1 (centres undefined),1.1,-0.015
COC(=O)CS(=O)(=O)c1ccsc1C(=O)Nc1ccc(F)cc1,/,-0.54
CC1=C(C(=O)Nc2ccccc2)C(c2ccccc2)n2c(s/c(=C\c3cccs3)c2=O)=N1 (centres undefined),-0.25,-0.41
O=C(NCCNC1CCCC1)c1ccco1,-0.1,/
O=C(N/N=C1\CCc2ccccc21)c1ccccn1,0.45,/
Cc1ccc(C)n1-c1sccc1C(=O)N1CCN(S(=O)(=O)c2cccc(F)c2)CC1,-0.55,/

# Another view of 7 compounds above:
SMILES	AID504770	CapD inh
Cc1ccc(C)n1-c1sccc1C(=O)N1CCN(S(=O)(=O)c2cccc(F)c2)CC1	-0.55	/
CCc1ccc(S(=O)(=O)NC2CCCCNC2=O)cc1 (centres undefined)	1.1	-0.015
O=c1[nH]nc2n1CCCCC2	-0.6	/
Cc1noc(C)c1C(=O)OCC(=O)NCC12CC3CC(CC(C3)C1)C2	0.15	/
COc1cc(C(=O)N(Cc2ccco2)Cc2ccccc2F)cc(OC)c1OC	-1.4	0.11
COc1ccc(CCC(=O)CCc2ccc(OC)cc2)cc1	1.2	1.1
C=CCN(CC=C)C(=O)CSc1nc(N)cc(N)n1	-0.55	/

# Continued:
SMILES,AID504770,CapD inh
COc1ccc(N2CCN(C(=O)CSc3nc4[nH]ncc4c(=O)n3-c3cccc(C(F)(F)F)c3)CC2)cc1,/,0.05
Cc1ccc(-c2cc(-c3ccccc3)nc(SCC(O)CN3CCOCC3)c2C#N)cc1 (centres undefined),/,1.4
COC(=O)C1=C(Nc2ccc(OC(F)(F)F)cc2)CSC1,0.4,0.11
CCC1=C(c2ccc(C)cc2)S(=O)(=O)N=C1N1CCC(C(=O)N(C)Cc2ccco2)CC1,-0.9,-0.34
CS/C(=N\S(=O)(=O)/C=C/c1ccccc1)NN,0.15,-0.38
CCn1cc(C(=O)OCC(=O)N2CCCC(C)C2)c(=O)c2ccc(C)nc21 (centres undefined),1,-1.8
CCOC(=O)C1=C(C)N=c2s/c(=C\c3ccc(N4CCCCC4)o3)c(=O)n2C1c1ccc2c(c1)OCO2 (centres undefined),/,0.32
COC(=O)C1=C(N)Oc2cc(C)oc(=O)c2C12C(=O)Nc1ccccc12 (centres undefined),0.1,/
CN1C=C(c2ccc3ccccc3n2)C(C#N)c2ccccc21 (centres undefined),/,19
Cn1c(=NC(=O)c2ccco2)sc2cc(S(C)(=O)=O)ccc21,1.1,2.2
N#C/C(=C\c1ccc(OCC(N)=O)cc1)c1ccccc1,-0.55,-1.4
S=c1scc(-c2ccc(Cl)c(Cl)c2)n1Nc1ccccc1,/,-0.6
O=C(CCCC(=O)Nc1nccs1)Nc1nccs1,-0.7,/
Cc1cc2ncn(S(=O)(=O)c3ccc(S(=O)(=O)NC4CCCCC4)cc3)c2cc1C,0.55,/
CCOC(=O)C1(C(=O)OCC)CCN(S(=O)(=O)c2ccc(C)cc2)c2ccccc2C1=O,-0.45,-0.2
CCN(CC)c1ccc(C2CC(c3ccc(Br)cc3)=NN2C(=O)CCC(=O)O)cc1 (centres undefined),/,0.21
CCOC(=O)c1oc2ccc(S(=O)(=O)Nc3noc4ccccc34)cc2c1C,0.3,-1.8
O=C(/C=C/c1cn(-c2ccccc2)nc1-c1ccc(F)cc1)N1CCN(C2CCS(=O)(=O)C2)CC1 (centres undefined),-0.5,/
Cc1ccc(O)c(C2=NNC(O)(C(F)(F)F)C2)c1 (centres undefined),-0.8,1.6
COc1ccc(-c2[nH]ncc2C(=O)NCCc2ccccc2)cc1,1.6,-2
CC1=C(C#N)C(c2cccnc2)C(C#N)=C(C)N1,-0.15,/
O=c1cc(CSc2nc(NCCc3ccccc3)c3ccccc3n2)nc2ccccn12,/,2.3
COc1cccc(N2C(=O)CC(c3c[nH]c4ccccc34)C2=O)c1 (centres undefined),-0.15,1.3
COc1ccccc1N1CCN(S(=O)(=O)c2cc(C(=O)Nc3ccc(Cl)c(Cl)c3)ccc2F)CC1,/,0.36
Cc1cc(C(F)(F)F)c2c(N)c(C(=O)Nc3cccc4ccccc34)sc2n1,/,0.94
# Going on with the list.
SMILES,AID504770,CapD inh
C(=C\c1ccccc1)/CN1CCN(c2ccccc2)CC1,-0.35,0.22
COc1ccc(S(=O)(=O)N(CC(=O)NCCSc2ccccn2)c2ccc(C)cc2)cc1OC,/,1
COc1cc(/C=C/C(=O)N2CCC=CC2=O)cc(OC)c1OC,/,-0.13
O=C(N/N=C1\CCS(=O)(=O)c2ccc(F)cc21)c1ccc2c(c1)OCO2,0.25,/
CN1CCC(N(C2CC2)S(=O)(=O)c2ccc(Cl)cc2)CC1,/,-0.41
Cc1ccc(NC(=O)c2c(C)nc3sc(C(=O)N4CCCC4)c(N)c3c2-c2ccco2)c(C)c1,-1.2,-0.79
Cc1nn(CC(=O)O)c(=O)c2cccn12,1.1,-1.3
CC(C)(C)c1cc(C(=O)NNC(=O)c2ccc(Cl)cc2Cl)cc(C(=O)NNC(=O)c2ccc(Cl)cc2Cl)c1,/,-0.17
Cn1nc(C2CC2)cc1NC(=O)Nc1csc2ccccc12,-1,-0.41
COc1cccc(NC(=O)NCCN2CCN=C2C)c1,-1.1,-0.83
COc1cccc2cc(-c3csc(NC(=O)CCC(=O)N4CCc5ccccc5C4)n3)c(=O)oc12,/,1.7
CC(C)C(NC(=O)C12CC3CC(CC(C3)C1)C2)C(=O)Nc1nc2ccccc2s1 (centres undefined),0.65,0.14
COc1ccc(S(=O)(=O)N2CCC(C(=O)N3CCCCCC3)CC2)cc1C,0.1,-0.03
COc1ccc(CN(C)C(=O)C2CC(=O)N(c3ccc4c(c3)OCCO4)C2)c(OC)c1 (centres undefined),0.15,/
CN(CCCN1c2ccccc2CCc2ccccc21)C(=O)c1ccccc1CC(=O)O,/,0.095
Cc1noc(-c2ccc(O)cc2O)c1-c1ccc2c(c1)OCCCO2,-0.7,-0.095
Cc1ccc(C(=O)OCc2nc3ccccc3s2)cc1,-0.2,-0.31
CCOc1ccc(OCCSc2nc3ccccc3n2Cc2ccccc2)cc1,-0.6,-0.53
C1CCOC2(CCC3(CC2)OCCCCO3)OC1,-1.1,-0.02
Cc1ccc(Cl)cc1NC(=O)CC(O)(C(F)(F)F)C(F)(F)F,-0.35,0.05
Nc1ncnc(SCc2c(Cl)cccc2Cl)n1,/,0.4
CC(C)=CC1C(CNC(=O)OCCCc2ccccc2)C1(C)C (centres undefined),/,-0.78
CCCCCOC(=O)NNC(=O)c1cc(-c2nc(C)cs2)c(SC)s1,/,1.8
O=C(Nc1ccnn1Cc1ccccn1)c1cccnc1Oc1ccccc1,-0.95,/
CC(C)(C)c1nnc(Nc2ccc(Nc3ccccc3)cc2)[nH]c1=O,0.25,-0.88
# Continued:
SMILES,AID504770,CapD inh
COc1ccc(/C=C2/SC(=S)NC2=O)cc1COc1ccc(F)cc1F,1.8,-1.6
Cc1ccc(C2C(NC(=O)c3ccccc3)C(=O)N2c2ccc(C)cc2)cc1 (centres undefined),-0.7,-0.015
COc1ccc(O)c(CN(C)CCN(C)C)c1,0.7,0.26
c1ccc(-c2csc3ncnc(NCCCn4ccnc4)c23)cc1,-0.25,-0.075
C=CCN1CN=C(NS(=O)(=O)c2ccc(NC(C)=O)cc2)NC1,2.9,-0.5
Cc1nn(Cc2nnc(SCc3c(Cl)cccc3Cl)o2)c(C)c1Br,-0.3,-0.21
C/C(=N\NC(=O)NC1CCCCC1)c1ccc2c(c1)OCO2,0.65,/
COc1ccc(C2SCCN2C(=S)Nc2cccc(C(F)(F)F)c2)cc1 (centres undefined),-0.95,0.41
CC1CN(C(=O)c2cc(N(C)C)nc(N(C)C)n2)CC(C)O1 (centres undefined),/,0.045
O=C(O)C1c2ccccc2C(=O)N(Cc2ccc(F)cc2)C1c1cccnc1 (centres undefined),/,-0.77
O=C(Oc1ccc2c(c1)OCO2)C1CCCCN1S(=O)(=O)c1ccccc1 (centres undefined),-0.25,/
Cn1c(-c2ccc(N)cc2)nc2cc(N)ccc21,-0.1,79
O=c1oc2ccc3ccccc3c2cc1C1=Nn2c(nnc2-c2ccccc2)SC1,/,1.4
CC1CCCCN1S(=O)(=O)c1ccc(NC(=O)c2cnccn2)cc1 (centres undefined),0.85,/
O=S(=O)(/C=C/c1ccc2c(c1)OCO2)NCc1ccc(Cl)cc1,/,5.5
O=C1CS/C(=C/C(=O)c2cccs2)N1,-1.2,-2.7
